Assay outcomes from PubChem BioAssay.
Ba CapD inh – inhibitors of Bacillus anthracis CapD enzyme; z-score (no concentration beside the values); purified CapD enzyme, fluorescence intensity read-out; stronger effect = lower value; some hits fall short of the stated cut; actives 0.23% (n = 140,000);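 active = z-score under -4 in either of two replicates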;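 also: stock transfer was 100 nL into about 40 µL; score is relative to mean and spread of the plate; one replicate is shown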
AID504770 – growth inhibitors of E. coli YBA685 in a screen for V. cholerae RctB (chromosome II replication) inhibitors | AID 504770 | E. coli YBA685 rctB-dependent plasmid, OD600 growth, 3 h; stronger effect = lower value | z-score (concentration not given with the values) | actives 0.27% (n = 130,000);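 active = z-score under -2 on both plates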;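 also: wells of about 30 µL received 100 nL stock; score is relative to mean and SD of the test wells; the first replicate is given; strong numbers were not always called active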
The depositor's hits bear a star; . = no result given. The list is partial. The share of hits here may be higher or lower than overall.

canonical_smiles	Ba CapD inh	AID504770
O=C(NNc1ncc(C(F)(F)F)cc1Cl)c1ccccc1CC[N+](=O)[O-]	0.43	.
COc1ccc(OCC(O)Cn2c(N3CCNCC3)nc3c2c(=O)n(C)c(=O)n3C)cc1 (stereo not drawn)	0.08	.
CC1(C)CN=C(Nc2cccc(C(F)(F)F)c2)S1	0.045	.
Cc1nc(N2CCCC2)ncc1S(=O)(=O)c1ccc(Cl)cc1	0.24	-0.65
O=C(c1ccco1)N1CCC2(CC1)OCCO2	-0.73	2.5
CN(C)CCCNC(=O)c1ccc(=O)n(Cc2c(Cl)cccc2Cl)c1	0.22	.
O=C(CCN1C(=O)S/C(=C\c2cccs2)C1=O)NCc1ccco1	.	-0.6
O=C1c2ccccc2NS(=O)(=O)N1Cc1ccccc1	14	-0.5
C(=N\Nc1ccccc1Oc1ccccc1)/c1cnc(N2CCOCC2)s1	0.83	.
CCCCCCc1cc(O)c2c3c(c(=O)oc2c1)CCC(C)C3 (stereo not drawn)	0.92	.

Continued, starting with the last 7 of the part before.
canonical_smiles	Ba CapD inh	AID504770
Cc1nc(N2CCCC2)ncc1S(=O)(=O)c1ccc(Cl)cc1	0.24	-0.65
O=C(c1ccco1)N1CCC2(CC1)OCCO2	-0.73	2.5
CN(C)CCCNC(=O)c1ccc(=O)n(Cc2c(Cl)cccc2Cl)c1	0.22	.
O=C(CCN1C(=O)S/C(=C\c2cccs2)C1=O)NCc1ccco1	.	-0.6
O=C1c2ccccc2NS(=O)(=O)N1Cc1ccccc1	14	-0.5
C(=N\Nc1ccccc1Oc1ccccc1)/c1cnc(N2CCOCC2)s1	0.83	.
CCCCCCc1cc(O)c2c3c(c(=O)oc2c1)CCC(C)C3 (stereo not drawn)	0.92	.
O=C1OCCC1Sc1nc2ccccc2n1Cc1ccccc1 (stereo not drawn)	.	-0.6
COc1ccc(C2SCCN2C(=O)c2cc3ccccc3oc2=O)cc1[N+](=O)[O-] (stereo not drawn)	0.69	.
N#Cc1c(Cl)cccc1Oc1ccc(S(=O)(=O)N2CCC(O)(Cc3ccccc3)CC2)cc1	-0.56	.
O=S(Cc1cc(Oc2ccccc2)nc(-c2ccccc2)n1)c1ccccc1 (stereo not drawn)	-0.54	.
CCOC(=O)c1sc(SC)c2c1CCc1cnc(SC)nc1-2	0.98	1.3
C/C(NNc1ccccc1)=C(/C#N)C(N)=S	-1.1	-0.65
CC1SCC(=O)N(CC(=O)Nc2ccc(F)cc2F)C1=O (stereo not drawn)	-0.57	-1.2
O=C(CSc1nnc(Nc2ccccc2F)s1)Nc1ccc2c(c1)OCCCO2	.	-0.3
COCc1cc(C)nc2sc(-c3ccc([N+](=O)[O-])cc3)c(NC(=O)c3ccccc3)c12	0.28	.
O=C(NCC(O)c1ccccc1)c1ccco1 (stereo not drawn)	-0.045	-0.5

The listing continues.
canonical_smiles	Ba CapD inh	AID504770
Fc1ccccc1-c1nc(N2CCN(c3ccccn3)CC2)c2ccccc2n1	-0.63	.
Cc1ccc2c(c1)NC(C1=NS(=O)(=O)c3ccc(C)cc3N1)=NS2(=O)=O	0.66	-0.2
O=C(Cc1cccs1)Nc1ccc(N2CCCCC2)cc1	-0.35	0.9
COc1ccc2ccccc2c1C1NC(=S)NC(C)=C1C(=O)Nc1cccc(C)c1C (stereo not drawn)	-0.17	.
O=C(Nc1c(F)cc(F)cc1Br)c1cc(S(=O)(=O)NCCc2ccccc2)ccc1F	-0.68	.
CC(Oc1ccc(Cl)cc1Cl)C(=O)Nc1nc2c(s1)C(=O)CC(C)(C)C2 (stereo not drawn)	0.05	-0.2
COc1nc(OCC#N)nc(N(C)C)n1	1.2	-0.05
CCCCCCCNC(=S)NNC(=O)c1ccncc1	-0.29	.
COCCn1c(C)cc(C(=O)COC(=O)CCc2nc3ccccc3s2)c1C	.	-0.7
Cc1nc(-c2ccncc2)sc1C(=O)Nc1ccc(OC(F)(F)F)cc1	-1.3	.

Next structures.
canonical_smiles	Ba CapD inh	AID504770
O=C(CSc1n[nH]c(=O)n1-c1ccccc1)Nc1ccccc1	0.83	1.4
Cc1cc(C)nc(NS(=O)(=O)c2ccc(NC(=O)C(C)Oc3ccc(Cl)cc3Cl)cc2)n1 (stereo not drawn)	0.29	.
O=C1NC(=Nc2ccccc2)S/C1=C/C=C/c1ccco1	.	-0.35
CCc1ccc(NC(=O)C2CCCN2S(=O)(=O)c2ccc3c(c2)C(C)(C)C(=O)N3C)cc1 (stereo not drawn)	-0.66	-1.1
CCOC(=O)c1cc(-c2ccc(Cl)cc2)no1	-0.41	-1.4
Cc1cc2c(=O)[nH]nc(N)c2c(Sc2ccc(Cl)cc2)n1	0.54	2.9
O=C(CSc1nnc(-c2ccccc2)n1Cc1ccco1)c1ccc2c(c1)OCO2	.	-2
O=C(NN1C(=O)c2ccccc2NC1c1ccccn1)c1ccccc1 (stereo not drawn)	-0.065	0
CCOC(=O)c1sc(N)c(C#N)c1COC(=O)C1Cc2ccccc2CN1S(C)(=O)=O (stereo not drawn)	.	0
CS(=O)(=O)Nc1ccc(C(=O)NCCc2ccccc2)cc1	0.27	-0.6

Next part
canonical_smiles	Ba CapD inh	AID504770
Cc1ccc(CNC(=O)c2cn(C)c3ccc(S(=O)(=O)N(C)C)cc3c2=O)cc1	0.07	-1
CN1c2ccccc2C(C)(C)C12C=Nc1c(c(C(=O)N3CCOCC3)cc3ccccc13)O2 (stereo not drawn)	-0.16	.
CN(CC1COc2ccccc2O1)C(=O)C1CCN(c2ccc(-c3cccs3)nn2)CC1 (stereo not drawn)	-2.3	1.4
Cc1ccc(Oc2ccc(OCC(=O)NCC3CCCO3)cc2)cc1 (stereo not drawn)	-0.86	-0.15
CC(C)C(=O)Oc1cc(-c2ccccc2)c2oc(=O)sc2c1	-0.53	-0.15
O/N=C\c1ccc(-c2ccc(Cl)cc2)o1	7.5	0
Cc1ccc(C(=O)NN2C(=O)CSC2=S)cc1	-0.86	-0.9
Cc1ccc2cc(NC(=O)c3ccc(C(C)(C)C)cc3)ccc2n1	0.75	.
COc1cccc(/C=C2\SC(N3CCC(C)CC3)=NC2=O)c1OC	0.095	0.05
CCOc1ccc(-c2c(C#N)c(N)nc(SCC#N)c2C#N)cc1	4.1	-0.2

Next part
Every second line gives: Ba CapD inh | AID504770
> O=C(O)C1c2cccn2-c2ccccc2CN1Cc1ccccc1 (stereo not drawn)
 : -0.53 | .
> CCN1CC23C=CC(O2)C(C(=O)O)C3C1=O (stereo not drawn)
 : -0.15 | -0.4
> CC(C)NC(=O)/C(C#N)=C/c1ccccc1
 : . | 0
> CC1CCCC(NC(=O)CSc2ccccc2Cl)C1C (stereo not drawn)
 : 0.69 | 0.5
> CC(C)(C)OC(=O)Oc1ccc(/C=N/NC(=O)c2ccc(OC(F)(F)F)cc2)cc1
 : 0.84 | .
> Cc1cc(/C=C2\C(=O)NC(=O)N(c3ccc(F)cc3)C2=O)c(C)n1-c1cccc(C(=O)O)c1
 : -1.6 | .
> Cc1ccc(S(=O)(=O)NC2CCN(c3ncccn3)CC2)cc1
 : 7.2 | -0.1
> CCCCN(CC)Cc1c(O)ccc2c3c(c(=O)oc12)CCC3
 : 33 | .
> CCc1cc2c(cc3c(=O)n(CC(=O)N4CC(C)CC(C)C4)nc(CC)n32)s1 (stereo not drawn)
 : -0.035 | -0.4
> NS(=O)(=O)c1ccc(NC(=O)CCN2C(=O)/C(=C/c3ccc(F)cc3)SC2=S)cc1
 : -0.43 | .
> O=C(/C=C/c1ccccc1)NCCOc1ccccc1
 : 0.07 | -0.6
> CCS(=O)(=O)N1CCC(C(=O)NC2CCCCC2C)CC1 (stereo not drawn)
 : 0.94 | 0.05
> O=C(Cc1c[nH]c2ccccc12)OCc1c(F)c(F)c(F)c(F)c1F
 : . | -1
> CCc1ccccc1NC(=O)c1sc2[nH]c(=O)c(C(=O)O)cc2c1N
 : -1.7 | 1.4
> CC(C)c1ccc2[nH]c3c(c2c1)CCCC3O (stereo not drawn)
 : 0.18 | 0
> C#CCn1cnc2c(oc3ccccc32)c1=O
 : . | 1.2
> CCCn1c(N)c(C(=O)CSc2nnc(-c3ccco3)n2-c2ccccc2)c(=O)n(C)c1=O
 : . | 1.6
> CC1(C)CC2CC(C)(CN2c2nc(-c3ccco3)cc(C(F)(F)F)n2)C1 (stereo not drawn)
 : 0.26 | 1.5
> Cc1nn(-c2ccccc2)c(C)c1CN1CCC(NS(=O)(=O)c2cccc(Br)c2)C1 (stereo not drawn)
 : -0.65 | .
> CCc1ccc(N2CC34C=CC(O3)C(C(=O)O)C4C2=O)cc1 (stereo not drawn)
 : . | -0.6
> CCOC(=O)c1oc2ccccc2c1COC(=O)c1ccc2c(c1)OCO2
 : . | 0.2
> O=C(NCCS(=O)(=O)Cc1cc2cccc3c2n(c1=O)CCC3)c1cccc(Cl)c1
 : 1.4 | .
> Cc1ccccc1CC(=O)c1ccc(O)cc1O
 : -1.9 | 2.4
> CC(C)(CC(=O)N1CCN(c2ccccc2)CC1)Sc1ccc(Cl)cc1
 : -0.21 | -0.4
> CN(C)P(=NC(=O)COc1ccc(Cl)cc1Cl)(N(C)C)N(C)C
 : . | -0.1
> CCC(=O)Nc1cc(C(=O)N2CCC3(CC2)OCCO3)ccc1S(=O)(=O)c1ccc(C)cc1
 : -0.41 | -0.15
> CCOC(=O)c1ccc2c(c1)nc(SCC(=O)C(C)(C)C)n2CC
 : . | -0.6
> O=C(Nc1sc2c(c1C(=O)O)CCCC2)c1cccs1
 : . | 0.15
> Cc1ccc(N2C(=O)C3C(c4ccc(Cl)cc4Cl)OC4(C(=O)c5ccccc5C4=O)C3C2=O)cc1 (stereo not drawn)
 : -1.1 | .
> Cc1cccc(C)c1NC(=O)C1(N(Cc2ccccc2)C(=O)c2ccccc2O)CCC(C(C)(C)C)CC1 (stereo not drawn)
 : -0.075 | .

Continued.
Every second line gives: Ba CapD inh | AID504770
> CC(=O)OCc1ccc(/C=C(\C#N)S(C)(=O)=O)o1
 : -1.3 | -0.5
> CCN(CC(=O)Nc1ccc(NC(C)=O)cc1)C(=O)c1n[nH]c(=O)c2ccccc12
 : . | 0.1
> COc1ccc(C(=O)Oc2ccc(C=C3C(=O)NC(=O)NC3=O)cc2Cl)cc1
 : 0.24 | .
> Cc1c(C)c(C)c(CSc2nc3ccccc3[nH]2)c(C)c1C
 : 0.12 | .
> COc1ccc(C2C3CN(C)CC=C3C(C#N)=C(N)C2(C#N)C#N)cc1 (stereo not drawn)
 : 2.9 | .
> Nc1ccc2c(c1)OCCCO2
 : 0.27 | .
> O=C1C=C(OCc2ccccc2)CN1
 : -0.01 | -1.2
> S=c1[nH]nc(Nc2ccccc2Cl)s1
 : -0.76 | .
> O=C(CN1CCc2ccccc21)Nc1ccc(SC(F)F)cc1
 : . | -1.5
> COc1ccc(C2CC(=O)C3=C(C2)Nc2ccccc2NC3c2ccc([N+](=O)[O-])cc2)cc1OC (stereo not drawn)
 : -1.7 | .
> N#Cc1cc([N+](=O)[O-])ccc1Sc1ccc(Cl)cc1
 : -0.72 | .
> COc1ccc(Br)cc1CN(C)C(C)C(=O)Nc1ccc2c(c1)OCO2 (stereo not drawn)
 : . | -0.4
> Cc1cc(C)cc(NC(=O)Cc2ccc(OC(=O)C3CCCCC3)cc2)c1
 : -0.93 | .
> c1ccc(-c2csc3ncnc(N4CCN(c5ccccc5)CC4)c23)cc1
 : 0.3 | .
> COc1cc(NC(=O)Nc2ccccc2C)cc(OC)c1
 : -0.36 | 0.15
> COc1ccc(CCNC(=O)CCCn2c(SCC(=O)Nc3cc(C)on3)nc3ccccc3c2=O)cc1OC
 : -0.14 | .
> COc1ccc(C2=NN(C(=O)CCCC(=O)O)C(c3ccc(Br)cc3)C2)cc1 (stereo not drawn)
 : 8.3 | .
> CCSc1nnc(NC(=O)CSc2nnc(CNC(=O)COc3ccc(Cl)cc3)n2-c2ccc(F)cc2)s1
 : -0.14 | .
> CN(Cc1ccccc1)C(=O)CSc1nc2cc(C(=O)N3CCC(C(N)=O)CC3)ccc2c(=O)n1-c1ccccc1
 : 0.055 | .
> CC1CC(C(F)(F)F)n2ncnc2N1C(=O)CSc1nc2ccccc2o1 (stereo not drawn)
 : 0.45 | -0.25
> CC1CCCN(C(=O)c2cc(-c3ccccc3)n[nH]2)C1 (stereo not drawn)
 : -1.3 | 0.7
> N#Cc1c(SCC(=O)c2ccccc2)nc2c(c1-c1cccnc1)CCCC2
 : -0.02 | .
> O=C1C(=O)N(CO)C(c2ccccc2)/C1=C(\O)c1ccccc1 (stereo not drawn)
 : -2.5 | -0.95
> CCOc1ccc(NC(=O)CSc2nc3ccccc3c(=O)n2CCC(=O)NCCc2ccc(OC)c(OC)c2)cc1
 : 0.41 | .
> O=C(O)COc1ccc(S(=O)(=O)NCCc2ccccc2)cc1
 : 0.63 | 0.2
> C=CCOc1ccc(CN2CCN(C(=O)CNC(=O)c3cccnc3)CC2)cc1
 : 0.63 | .
> COc1ccccc1N1CCN(C(C)c2nc3ccccc3s2)CC1 (stereo not drawn)
 : . | 0
> Clc1cccc(-c2nnc3c4ccccc4ncn23)c1
 : 0.08 | 0.85
> Cc1ccc(-c2nc3s/c(=C/c4ccc(Cl)cc4)c(=O)n3n2)cc1
 : -0.51 | .
> Cc1ccc(N2C(=O)C(C)SC23C(=O)N(CN2CCN(C(c4ccccc4)c4ccccc4)CC2)c2ccccc23)cc1Cl (stereo not drawn)
 : -0.12 | .
> COC(=O)CC1COc2ccccc2N1C(=O)c1cccc(C(F)(F)F)c1 (stereo not drawn)
 : -0.26 | .

Four of the compounds above, as labelled records.
N#Cc1cc([N+](=O)[O-])ccc1Sc1ccc(Cl)cc1
- Ba CapD inh: -0.72
- AID504770: .

Cc1cc(C)cc(NC(=O)Cc2ccc(OC(=O)C3CCCCC3)cc2)c1
- Ba CapD inh: -0.93
- AID504770: .

COc1ccc(C2=NN(C(=O)CCCC(=O)O)C(c3ccc(Br)cc3)C2)cc1 (stereo not drawn)
- Ba CapD inh: 8.3
- AID504770: .

COC(=O)CC1COc2ccccc2N1C(=O)c1cccc(C(F)(F)F)c1 (stereo not drawn)
- Ba CapD inh: -0.26
- AID504770: .
